# Calb biofilm kill: mixture kills Candida albicans biofilm cells | C. albicans biofilm persisters + clotrimazole, fluorescence viability; primary screen in compound mixtures of four per well | inhibition, % at 7.6 µM | AID 1242 | 120,000 tested, 0.02% active;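 active = inhibition above 30.3% in the primary screen of four-compound pools, then above 30% when the compound was retested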;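 also: compounds exposed to preformed 24 h biofilms for 48 h; the number belongs to the whole pool; some results filed as inactive read as strong as hits; inactives centre near 12; 0% = biofilm with clotrimazole alone and 100% = kill control; retested singly at about 60 µM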
#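 Assay system: C. albicans biofilms / Medium: RPMI/MOPS medium, pH 7.0 / Schedule: biofilm formation 24 h, compound exposure 48 h, 37 °C / Measured by: Alamar Blue fluorescence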
# The depositor's hits bear a star. These rows are one share of the data. The share of hits here may be higher or lower than overall.
SMILES	Calb biofilm kill
CCOC(=O)c1c(C)oc2ccc(OS(C)(=O)=O)cc12	24
O=C(NCc1ccccc1Cl)c1cnccc1C(F)(F)F	14
CC(C)=C1C(=O)NN(c2ccc(C)c(Cl)c2)C1=O	17
O=[N+]([O-])c1cccc(CSc2cccc[n+]2[O-])c1	17
C/C(=N\NC(=O)COc1ccc(C#N)cc1)c1ccc(N2CCOCC2)cc1	12
Cc1[nH]c(=O)[nH]c(=O)c1S(=O)(=O)N1CCCC(C(=O)N2CCN(c3cccc(C(F)(F)F)c3)CC2)C1 (configuration not stated)	11
CCOC(=O)C(=Cc1ccc(-n2cncn2)cc1)C(=O)OCC	8
Cc1cc(=O)n2[nH]c(SCc3ccc(Cl)cc3)nc2n1	21
O=C(CSc1nc(C2CCCCC2)nc2ccccc12)NCc1ccc2c(c1)OCO2	6
NS(=O)(=O)c1ccc(NC(=O)Nc2cccc(Cl)c2)cc1	23
COc1cc2c3nnc(-c4ccc(F)cc4)c-3cn(Cc3cccc(F)c3)c2cc1OC	11
CC(=O)Nc1cc(N=Cc2ccc(O)cc2O)c(Cl)cc1Cl	6
NS(=O)(=O)c1ccc(CNC(=O)CSc2ccccc2)cc1	3
O=C(NC(=S)N1CCN(c2ccc([N+](=O)[O-])cc2)CC1)c1ccc(F)cc1	12
CCOC(=O)C1(CC2CCCCO2)CCN(C(=O)Nc2ccc(SC)cc2)CC1 (configuration not stated)	16
Cn1c(SCc2ccccc2[N+](=O)[O-])nnc1-c1cccnc1	24
O=C(NCCCn1ccnc1)/C(=C\c1cccs1)NC(=O)c1ccco1	15
CN(C)/C=C(\C(=O)c1ccc(Cl)cc1)c1nnnn1-c1ccc(Cl)cc1	11
CCN(CC)S(=O)(=O)c1cccc(NC(=O)c2ccc(-n3nc(C)cc3C)cc2)c1	17
O=C(CCl)Nc1ccccc1C(=O)Nc1ccc2c(c1)OCO2	5
O=C(COC(=O)/C=C/c1ccccc1Cl)NC(=O)Cc1ccccc1	22
O=C(COC(=O)C1CCC(=O)N1)Nc1ccccc1Br (configuration not stated)	13
Cc1ncc(C(=O)O)c(C(=O)O)c1N	16
O=C(CCC(=O)N1CCN(S(=O)(=O)c2ccc(Cl)cc2)CC1)NCc1ccccc1	12
C[C@]12CC[C@@H]3c4ccc(O)cc4CC[C@H]3[C@@H]1C[C@@H](O)[C@@H]2O	12
COc1ccccc1OCC#CCSc1ncccn1	12
CC(=O)Nc1ccc(NC(=O)CN(c2cc(Cl)ccc2Cl)S(C)(=O)=O)cc1	7
CCOCCCn1c(SCC(=O)NCc2ccc3c(c2)OCO3)nc2ccccc2c1=O	17
Cc1cccc2nc(COc3ccc(-c4ccccc4)cc3)cn12	11
Cc1cc(C)nc(N2CCC(C(=O)NCCc3ccc(Cl)cc3)CC2)n1	-7

# An excerpt from above in order of molar mass, high to low:
SMILES	Calb biofilm kill
Cc1[nH]c(=O)[nH]c(=O)c1S(=O)(=O)N1CCCC(C(=O)N2CCN(c3cccc(C(F)(F)F)c3)CC2)C1 (configuration not stated)	11
CCOCCCn1c(SCC(=O)NCc2ccc3c(c2)OCO3)nc2ccccc2c1=O	17
O=C(CCC(=O)N1CCN(S(=O)(=O)c2ccc(Cl)cc2)CC1)NCc1ccccc1	12
O=C(CSc1nc(C2CCCCC2)nc2ccccc12)NCc1ccc2c(c1)OCO2	6
COc1cc2c3nnc(-c4ccc(F)cc4)c-3cn(Cc3cccc(F)c3)c2cc1OC	11
CC(=O)Nc1ccc(NC(=O)CN(c2cc(Cl)ccc2Cl)S(C)(=O)=O)cc1	7
CCN(CC)S(=O)(=O)c1cccc(NC(=O)c2ccc(-n3nc(C)cc3C)cc2)c1	17
CCOC(=O)C1(CC2CCCCO2)CCN(C(=O)Nc2ccc(SC)cc2)CC1 (configuration not stated)	16
O=C(NC(=S)N1CCN(c2ccc([N+](=O)[O-])cc2)CC1)c1ccc(F)cc1	12
C/C(=N\NC(=O)COc1ccc(C#N)cc1)c1ccc(N2CCOCC2)cc1	12
Cc1cc(C)nc(N2CCC(C(=O)NCCc3ccc(Cl)cc3)CC2)n1	-7
O=C(NCCCn1ccnc1)/C(=C\c1cccs1)NC(=O)c1ccco1	15
O=C(COC(=O)/C=C/c1ccccc1Cl)NC(=O)Cc1ccccc1	22
O=C(COC(=O)C1CCC(=O)N1)Nc1ccccc1Br (configuration not stated)	13
CC(=O)Nc1cc(N=Cc2ccc(O)cc2O)c(Cl)cc1Cl	6
NS(=O)(=O)c1ccc(CNC(=O)CSc2ccccc2)cc1	3
O=C(CCl)Nc1ccccc1C(=O)Nc1ccc2c(c1)OCO2	5
Cn1c(SCc2ccccc2[N+](=O)[O-])nnc1-c1cccnc1	24
NS(=O)(=O)c1ccc(NC(=O)Nc2cccc(Cl)c2)cc1	23
O=C(NCc1ccccc1Cl)c1cnccc1C(F)(F)F	14
Cc1cccc2nc(COc3ccc(-c4ccccc4)cc3)cn12	11
Cc1cc(=O)n2[nH]c(SCc3ccc(Cl)cc3)nc2n1	21
CCOC(=O)c1c(C)oc2ccc(OS(C)(=O)=O)cc12	24
C[C@]12CC[C@@H]3c4ccc(O)cc4CC[C@H]3[C@@H]1C[C@@H](O)[C@@H]2O	12
COc1ccccc1OCC#CCSc1ncccn1	12
CC(C)=C1C(=O)NN(c2ccc(C)c(Cl)c2)C1=O	17
O=[N+]([O-])c1cccc(CSc2cccc[n+]2[O-])c1	17
Cc1ncc(C(=O)O)c(C(=O)O)c1N	16

# Other structures.
SMILES	Calb biofilm kill
Cc1cc(C(=O)CN2C(=O)C(=O)N(Cc3ccccc3)C2=O)c(C)n1CC1COc2ccccc2O1 (configuration not stated)	24
COc1cc(C(=O)Nc2ccc3c(c2)OCO3)ccc1OCc1c(C)noc1C	11
C/C(=N\N=C1\NC(=O)C(CC(=O)NCc2ccccc2)S1)C(C)C (configuration not stated)	-2
COC(=O)C1(C(C[N+](=O)[O-])c2ccco2)C(=O)NCC1c1ccccc1 (configuration not stated)	20
Nc1nc(CSc2nnc(-c3cccc(F)c3)n2-c2ccccc2)nc(N2CCOCC2)n1	7
Cc1ccc(NC(=O)CN(C)C(=O)c2cc3ccccc3o2)cc1	2
COc1cc(OC)c(/C=N/n2c(C)nnc2C)c(OC)c1	9
Cc1ccc(C)c(CSCC(=O)NCc2cccs2)c1	2
O=c1[nH]c(CSc2ncc(C(F)(F)F)cc2Cl)nc2cc(C(F)(F)F)ccc12	16
O=C(Nc1ccccc1)Nc1snnc1C(=O)Nc1cccc(O)c1	0
CC(C)CCn1c(=O)c2ccccc2n2c(CN3CCCC3)nnc12	8
Cc1cc(=O)nc2c3ccccc3n(C(C)C(=O)Nc3cc(F)ccc3F)n12 (configuration not stated)	15
COc1cccc(N2CCN(S(=O)(=O)c3cccc4nsnc34)CC2)c1	20
Cc1onc(-c2c(F)cccc2Cl)c1C(=O)c1ccc(F)cc1	23
Cn1cc(S(=O)(=O)N2CCC3(CC2)OCCO3)c(=O)n(C)c1=O	0
CCn1c(SCC(=O)NNC(=O)c2ccco2)nnc1-c1ccco1	18
Cc1c(Cl)c([N+](=O)[O-])nn1CCCC(=O)Nc1cccnc1	8
COc1ccccc1OCCSc1nc(N)cc(N)n1	9
O=C(Oc1ccc2ccc(=O)oc2c1)C1CCCCC1	5
COc1cc(NC(=O)C/C(C)=N/NC(=O)Cc2ccc(Cl)cc2)c(OC)cc1Cl	16
Cc1cccc(NC(=S)NNC(=O)c2csc(C(C)C)c2)c1	13
COc1cc(C(=O)OCC(=O)NC(=O)c2cccn2C)ccc1OC(F)F	4
C/C(=N\O)C(=O)NCCN(C)C	4
CCc1cc(C(=O)NNC(=S)Nc2cc(C)ccc2C)cs1	7
COc1ccc(-n2c(-c3ccc(Br)cc3)nc(=S)c3c2CCCC3)cc1	16
Cn1cc(CNCCN2CCCCC2=O)c(-c2cccc(Cl)c2)n1	1
CCOc1ccc(Oc2c(/C=N/NC(N)=O)c(C)nn2-c2ccccc2)cc1	7
COc1ccc(NS(=O)(=O)c2ccc(NC(=O)c3ccc(CN4CCOCC4)cc3)cc2)cc1	2
COc1ccc(N2CCN(C(=O)C3CCN(S(=O)(=O)c4ccc(F)cc4)CC3)CC2)cc1	10
Cc1cc(O)c(NC(=O)c2cc([N+](=O)[O-])ccc2Cl)cc1C	2
O=C(Cn1c(=O)c2ccccc2n(CC(=O)N2CCCCC2)c1=O)N1CCCCC1	19
COc1ccc(N=C2SCC(c3ccc(C)cc3)=NN2CCO)cc1	27
Cc1cc(C(=O)C(C)Cl)c(C)n1Cc1ccco1 (configuration not stated)	35
O=C(CCN1CCCCC1)N/N=C/c1ccc(Br)cc1	9
Cc1ccc(-n2cc(-c3ccccc3)c3c(N4CCOCC4)ncnc32)cc1	15
CCCCCCCCCCCCS[C@H]1CS(=O)(=O)C[C@@H]1O	20
COc1ccc(NC(=O)CN2CCC(C(N)=O)(N3CCCCC3)CC2)c(OC)c1	10
COc1ccccc1-c1nc(COc2ccc(Cl)cc2Cl)no1	16
O=C(NCC1OCCc2ccccc21)c1cc(COc2c(F)cccc2F)on1 (configuration not stated)	10
CCOC(=O)c1nn(-c2ccc(Cl)cc2)c2nnc(Cc3ccccc3)c(=O)n12	18
O=C(Cn1cnc2cc([N+](=O)[O-])ccc2c1=O)Nc1ccc(N2CCOCC2)cc1	13
Cc1cccc(OCC(=O)N/N=C/c2ccc3c(c2)OCO3)c1	20
Cc1cccc(OC(=O)NCCOC(=O)N(O)c2ccc(Cl)cc2)c1	10
Cc1ccc(NS(=O)(=O)c2ccc3c(c2)CCC(=O)N3)cc1C	15
CCOc1ccc(N(C(=O)Cn2nnc3ccccc32)C(C(=O)NC(C)(C)CC)c2cccn2C)cc1 (configuration not stated)	7
Cc1nn(Cc2ccccc2)c(Cl)c1/C=C1\NC(=S)NC1=O	-4
CC(C)NC(=O)C(=O)NCc1ccccn1	1
O=[N+]([O-])c1ccc(N/N=C\c2ccccc2OCc2ccccc2)cc1	1
CCOC(=O)NC(=O)c1cn(CCN(C)C)c(=O)[nH]c1=O	8
Cc1cc(NCc2cccnc2)no1	9
Cc1cccc2c(-c3ccccc3)cc(=O)[nH]c12	5
CCCCCOC(=O)CC(C(=O)OCCCCC)N1CCCCC1 (configuration not stated)	14
CC1=CC(c2ccccc2)=Nc2ccc(C)cc2N1	12
Clc1ccccc1-c1nnc(CNC2CC2)o1	2
COc1ccc(C)cc1N(CC(=O)Nc1ccc2c(c1)OCCO2)S(C)(=O)=O	8
Cc1cc(C(=O)COC(=O)c2ccc(O)cc2)c(C)n1CC1COc2ccccc2O1 (configuration not stated)	8
C=CCNC(=O)CSCc1ccc(Br)cc1	14
Cn1c(=S)n(/N=C/c2cccs2)c2ccccc21	27
CC(OC(=O)c1ccncc1)C(=O)Nc1cc(S(=O)(=O)N2CCCCC2)ccc1Cl (configuration not stated)	18
CN1c2ccccc2C(=O)/C(=C\Nc2ncccn2)S1(=O)=O	9

# Overlap with the part before: 2 compounds; new compounds follow.
SMILES	Calb biofilm kill
CC(OC(=O)c1ccncc1)C(=O)Nc1cc(S(=O)(=O)N2CCCCC2)ccc1Cl (configuration not stated)	18
CN1c2ccccc2C(=O)/C(=C\Nc2ncccn2)S1(=O)=O	9
COc1ccc(C(=O)NNC(=O)CCn2nnc(-c3ccc(C)cc3)n2)cc1OC	8
N#C/C(=N\Nc1ccc(F)cc1)C(=O)C1CC1	1
COc1ccc2c(c1)c(=O)c(C(=O)c1ccc(F)cc1)cn2CC(=O)Nc1ccc(F)cc1	12
CCN(CC)c1ccc2ccc(=O)oc2c1	47
O=[N+]([O-])c1cc([N+](=O)[O-])c2cccnc2c1O	19
Clc1nc(-c2ccccn2)nc2scc(-c3ccccc3)c12	15
COc1ccc(-c2cc(-c3ccc(N)cc3)nc(N)c2C#N)cc1OC	25
Cc1ccc2nc(/C=C/c3cccc(F)c3)ccc2c1	10
Cc1csc(NC(=O)C2CCN(S(=O)(=O)c3ccccc3F)CC2)n1	-2
CCCCN(CC)CCCNC(=S)Nc1ccc2nc(N3CCN(C)CC3)cc(C)c2c1	2
Cn1c(=O)c(NC2CCCCC2)c2c3c(cccc31)C(=O)c1ccccc1-2	12
Cc1nc(-c2ccc(C(=O)NCCO)cc2)cs1	13
COc1ccc(OC)c(/C=N/n2c(-c3n[nH]c4c3CCC4)n[nH]c2=S)c1	10
O=C(CSc1nnc2ccccn12)NNC(=O)c1ccccc1	6
Cn1c(SCC(=O)Nc2ccc(NC(=O)c3cccs3)cc2)nnc1-c1ccncc1	15
COc1ccc(CCC(=O)NCc2cn3ccc(C)cc3n2)cc1	14
Cc1ccc(C(=O)Nc2cccc(S(=O)(=O)N3CCOCC3)c2)cc1[N+](=O)[O-]	22
CC(C)C(=O)N1CCN(c2ccc(NC(=O)COc3ccccc3[N+](=O)[O-])cc2)CC1	17
COC(=O)c1cc(N2CCNCC2)nc2ccccc12	11
O=C(NCCCn1ccnc1)/C(=C/c1ccccc1)NC(=O)c1ccccc1	13
O=C(NCCCN1CCCCCC1)c1ccc2c(Cl)c3c(nc2c1)CCCC3	17

# Screening data deposited in PubChem BioAssay by PCMD.
